Assay outcomes from PubChem.
Yeast UUG start: yeast start codon fidelity modulation; activity score, % at 18.7 µM; AID 602363; 350,000 compounds, 0.13% hits; S. cerevisiae UUG-firefly luciferase reporter, luminescence/redox ratio;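 active = replicate mean at a twofold rise or more, about +100% in these data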;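 note: firefly luciferase made from a UUG start codon reports start codon fidelity; reporter light over untreated wells divided by growth signal over untreated wells; some hits fall short of that in this replicate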
* marks the source's active call; other numbers are inactive results. Only part of the results is shown, so the mix of outcomes need not match the whole.

Sample of the layout, five compounds:
SMILES	Yeast UUG start
CCC(=O)N1C[C@H](C)[C@H](OC)CN(C)C(=O)c2ccc(NC(=O)c3cnccn3)cc2OC[C@@H]1C	0
COc1cccc(-c2ccc([C@H]3[C@@H](CO)N4CCCCN(Cc5cncnc5)C[C@@H]34)cc2)c1	-12
C[C@H](CO)N1C[C@H](C)[C@H](CN(C)S(C)(=O)=O)Oc2c(NS(=O)(=O)c3cn(C)cn3)cccc2C1=O	-15
C[C@@H]1CN([C@H](C)CO)C(=O)Cc2cc(NC(=O)NC3CCCCC3)ccc2O[C@H]1CN(C)C(=O)Nc1ccc(F)cc1	17
CO[C@@H]1CN(C)C(=O)c2cc(NC(=O)C3CCC3)ccc2OC[C@H](C)N(Cc2nccs2)C[C@@H]1C	19

Results, repeating the preview:
SMILES	Yeast UUG start
CCC(=O)N1C[C@H](C)[C@H](OC)CN(C)C(=O)c2ccc(NC(=O)c3cnccn3)cc2OC[C@@H]1C	0
COc1cccc(-c2ccc([C@H]3[C@@H](CO)N4CCCCN(Cc5cncnc5)C[C@@H]34)cc2)c1	-12
C[C@H](CO)N1C[C@H](C)[C@H](CN(C)S(C)(=O)=O)Oc2c(NS(=O)(=O)c3cn(C)cn3)cccc2C1=O	-15
C[C@@H]1CN([C@H](C)CO)C(=O)Cc2cc(NC(=O)NC3CCCCC3)ccc2O[C@H]1CN(C)C(=O)Nc1ccc(F)cc1	17
CO[C@@H]1CN(C)C(=O)c2cc(NC(=O)C3CCC3)ccc2OC[C@H](C)N(Cc2nccs2)C[C@@H]1C	19
O=C(NC1CCC1)[C@H]1[C@H](CO)[C@H]2Cn3c(cccc3=O)[C@H]2N1CC1CCOCC1	-14
CO[C@H]1CN(C)C(=O)c2cc(NC(=O)C3CC3)ccc2OC[C@H](C)N(C(=O)c2ccccc2)C[C@H]1C	-3
CCC(=O)N1C[C@@H](C)[C@@H](OC)CN(C)C(=O)c2ccc(NC(=O)C3CC3)cc2OC[C@@H]1C	1
OC[C@H]1[C@H](c2ccc(C3=CCCC3)cc2)[C@H]2CN(CCC(F)(F)F)CCCCN21	14
C[C@@H]1CN([C@H](C)CO)C(=O)c2cc(NS(C)(=O)=O)ccc2O[C@@H]1CN(C)C	-1
O=C(c1cccnc1)N1C[C@@H]2[C@H](c3ccccc31)[C@H](CO)N2C(=O)Nc1ccccc1Cl	-1
O=C(CN1CCOCC1)N1CC[C@@H]2[C@H](CO)Nc3ccc(-c4ccccc4)cc3[C@@H]21	10
C[C@H](CO)N1C[C@H](C)[C@H](CN(C)Cc2ccc(C(=O)O)cc2)OCc2ccccc2-c2ccccc2C1=O	10
CO[C@@H]1CN(C)C(=O)c2ccc(NC(=O)NC(C)C)cc2OC[C@@H](C)N(Cc2ccc(-c3ccccn3)cc2)C[C@@H]1C	-3
Cc1ccc(S(=O)(=O)N2CC[C@@H]3[C@H](CO)N(C)c4ccc(C#Cc5cccnc5)cc4[C@@H]32)cc1	-20
CC(C)NC(=O)N(C)C[C@@H]1OCc2ccccc2-c2c(n(C)c3ccccc23)C(=O)N([C@@H](C)CO)C[C@H]1C	0
CC(=O)NC[C@@H]1[C@@H](c2ccc(-c3ccccc3F)cc2)[C@@H](CO)N1C(C)=O	-17
O=S(=O)(c1cccs1)N1CCCCN2[C@@H](CO)[C@@H](c3ccc(-c4ccccc4)cc3)[C@@H]2C1	2
C[C@H](CO)N1C[C@H](C)[C@H](CN(C)Cc2ccc(Cl)c(Cl)c2)Oc2c(NC(=O)C3CCCCC3)cccc2C1=O	-7
CO[C@@H]1CN(C)C(=O)c2ccc(NC(=O)c3ccc(F)cc3)cc2OC[C@@H](C)N(C(C)=O)C[C@H]1C	3
C[C@H]1CN([C@@H](C)CO)C(=O)Cc2cc(NC(=O)CCN3CCOCC3)ccc2O[C@@H]1CN(C)C(=O)Nc1ccccc1	-2
C[C@@H]1CN([C@H](C)CO)C(=O)c2cccc(NS(=O)(=O)c3ccc(Cl)cc3)c2O[C@@H]1CN(C)Cc1ccncc1	-7
COCC(=O)Nc1ccc2c(c1)OC[C@H](C)N(C(=O)c1ccccc1)C[C@H](C)[C@@H](OC)CN(C)C2=O	-1
CC=Cc1ccc2n(c1=O)C[C@@H]1[C@@H](CO)[C@H](C(=O)N(C)C)[C@H]2N1CC1CCOCC1 (mixture of isomers)	-4
COCCN(C[C@H]1[C@H](c2ccccc2)[C@H](CO)N1C(C)=O)C(=O)c1cccnc1	3

Of the compounds above, 4 have fluorine:
SMILES	Yeast UUG start
C[C@@H]1CN([C@H](C)CO)C(=O)Cc2cc(NC(=O)NC3CCCCC3)ccc2O[C@H]1CN(C)C(=O)Nc1ccc(F)cc1	17
OC[C@H]1[C@H](c2ccc(C3=CCCC3)cc2)[C@H]2CN(CCC(F)(F)F)CCCCN21	14
CC(=O)NC[C@@H]1[C@@H](c2ccc(-c3ccccc3F)cc2)[C@@H](CO)N1C(C)=O	-17
CO[C@@H]1CN(C)C(=O)c2ccc(NC(=O)c3ccc(F)cc3)cc2OC[C@@H](C)N(C(C)=O)C[C@H]1C	3

Later entries
SMILES	Yeast UUG start
O=C(Nc1cc(F)ccc1F)N1CCCCN2[C@H](CO)[C@@H](c3ccc(-c4ccccc4)cc3)[C@@H]2C1	3
O=C(c1ccccn1)N1CC[C@H]2[C@H](CO)Nc3ccc(-c4ccc(F)cc4)cc3[C@H]21	20
CO[C@H]1CN(C)C(=O)c2ccc(NC(=O)C3CC3)cc2OC[C@H](C)N(Cc2nccs2)C[C@H]1C	4
O=S(=O)(c1ccccc1)N1[C@@H]2CNc3ccccc3[C@@H]2[C@@H]1CO	11
CO[C@@H]1CN(C)C(=O)c2cc(NC(=O)c3ccc(-c4ccccc4)cc3)ccc2OC[C@H](C)NC[C@H]1C	-2
OC[C@@H]1Nc2ccc(-c3cccc(F)c3)cc2[C@H]2[C@@H]1CCN2Cc1ccc(F)cc1	23
Cc1ccc(S(=O)(=O)Nc2ccc3c(c2)CC(=O)N([C@H](C)CO)C[C@H](C)[C@@H](CN(C)Cc2ccccc2)O3)cc1	-1
C[C@@H]1CN([C@@H](C)CO)C(=O)c2cc(NC(=O)C3CC3)ccc2O[C@H]1CN(C)Cc1ccc(Cl)c(Cl)c1	9
Cc1ccc(S(=O)(=O)N(C)C[C@H]2Oc3ccc(N(C)C)cc3C(=O)N([C@@H](C)CO)C[C@@H]2C)cc1	10
CCC(=O)N1CCCCN2[C@@H](CO)[C@@H](c3ccc(C#Cc4ccccc4)cc3)[C@@H]2C1	-8
Cc1ccc(S(=O)(=O)Nc2ccc3c(c2)CC(=O)N([C@@H](C)CO)C[C@@H](C)[C@H](CN(C)CC2CCCCC2)O3)cc1	9
CN(C)C(=O)c1ccc(-c2ccc3c(c2)[C@@H]2[C@@H](CCN2C(=O)c2cnccn2)[C@@H](CO)N3)cc1	-12
C[C@@H]1CN([C@H](C)CO)C(=O)c2cc(NC(=O)CCN3CCOCC3)ccc2O[C@H]1CN(C)C	-16
CN1C(=O)c2cc(NC(=O)c3cccc(F)c3)ccc2OC[C@@H]2O[C@H](CC(=O)N3CCc4ccccc4C3)CC[C@@H]21	-25
C[C@H](CO)N1C[C@H](C)[C@H](CN(C)C(=O)Nc2ccc(F)cc2)Oc2ccc(NC(=O)c3ccncc3)cc2CC1=O	-8
CN(C)CC(=O)Nc1ccc2c(c1)[C@@H]1C[C@@H](CC(=O)NCc3cccnc3)O[C@@H](CO)[C@@H]1O2	-13
CNC[C@H]1Oc2ccc(NC(=O)Nc3cccc4ccccc34)cc2C(=O)N([C@@H](C)CO)C[C@@H]1C	15
CC(C)NC(=O)N(C)C[C@@H]1Oc2c(NC(=O)c3cnccn3)cccc2C(=O)N([C@H](C)CO)C[C@H]1C	4
CO[C@@H]1CN(C)C(=O)c2cc(NS(C)(=O)=O)ccc2OC[C@@H](C)N(C(=O)C2CC2)C[C@@H]1C	8
CN1C[C@@H]2[C@H](c3ccccc31)[C@H](CO)N2C(=O)c1cccnc1	-15
COc1ccc(CNC(=O)C[C@H]2C[C@H]3c4cc(NC(=O)NC5CCCC5)ccc4O[C@H]3[C@@H](CO)O2)cc1	-3
O=C(C[C@@H]1CC[C@H]2[C@@H](COC[C@H](O)CN2Cc2cc(F)cc(F)c2)O1)NCc1cccc(F)c1	-13
COc1ccc(NC(=O)Nc2ccc3c(c2)C(=O)N([C@@H](C)CO)C[C@@H](C)[C@@H](CN(C)Cc2ccc(Cl)c(Cl)c2)O3)cc1	-1
COc1ccc(-c2ccc([C@H]3[C@@H](CO)N4CCCCN(CC5CCOCC5)C[C@@H]34)cc2)cc1	7
CCCC(=O)Nc1ccc2c(c1)C(=O)N(C)[C@H]1CC[C@@H](CC(=O)N3CCCCC3)O[C@H]1CO2	0
(cont.)
SMILES	Yeast UUG start
COCC#Cc1ccc([C@@H]2[C@@H](CO)N3CCCCN(S(=O)(=O)c4ccc(OC)cc4)C[C@@H]23)cc1	-5
CCC(=O)Nc1ccc2c(c1)OC[C@@H](C)N(C(=O)Cc1cccnc1)C[C@H](C)[C@@H](OC)CN(C)C2=O	4
O=C(C[C@@H]1CC[C@H]2[C@@H](COC[C@H](O)CN2C(=O)Nc2ccccc2)O1)NCc1ccccc1F	-4
CC=Cc1ccc2n(c1=O)C[C@@H]1[C@@H](CO)[C@H](C(=O)NC3CCC3)N(C(=O)C3CCC3)[C@H]21 (mixture of isomers)	19
CCc1csc(N2[C@H](CO)[C@H](c3ccccc3)[C@@H]2CNCCOC)n1	-16
CCOC(=O)N(C)C[C@@H]1OCc2ccccc2-c2ccccc2C(=O)N([C@@H](C)CO)C[C@H]1C	-2
CN(C)CC#Cc1ccc([C@H]2[C@H](CO)N3CCCCN(C(=O)CN(C)C)C[C@@H]23)cc1	20
O=C(C[C@@H]1CC[C@H]2[C@@H](COC[C@@H](O)CN2C(=O)Nc2ccc(F)cc2)O1)NC1Cc2ccccc2C1	1
C[C@H](CO)N1C[C@H](C)[C@@H](CN(C)Cc2ccc(C(=O)O)cc2)Oc2c(NC(=O)C3CCCCC3)cccc2C1=O	7
C[C@@H]1CN([C@H](C)CO)C(=O)Cc2cc(NC(=O)c3ccncc3)ccc2O[C@H]1CN(C)C	-22
O=C(C[C@H]1CC[C@H]2[C@@H](COC[C@H](O)CN2Cc2nccs2)O1)NCc1ccc(-c2ccccc2)cc1	-7
O=C(NC[C@@H]1N[C@@H](CO)[C@H]1c1ccc(C2=CCCCC2)cc1)c1ccccc1	-11
C[C@@H]1CN([C@@H](C)CO)C(=O)c2cc(NS(=O)(=O)c3ccc(F)cc3)ccc2O[C@H]1CN(C)C	-2
O=C(C[C@@H]1CC[C@H]2[C@@H](COC[C@H](O)CN2C(=O)Nc2cc(Cl)cc(Cl)c2)O1)N1CCCCC1	5
O=C(C[C@@H]1CC[C@H]2[C@@H](COC[C@@H](O)CN2Cc2ccc3c(c2)OCO3)O1)N1CCOCC1	-12
CCC(=O)Nc1ccc2c(c1)OC[C@H](C)N(CC1CC1)C[C@@H](C)[C@@H](OC)CN(C)C2=O	-3
CCC(=O)Nc1ccc2c(c1)C(=O)N(C)C[C@H](OC)[C@H](C)CN(C(=O)NC(C)C)[C@@H](C)CO2	-4
Cc1cccc(S(=O)(=O)N2CC[C@@H]3[C@H]2c2cc(C#Cc4ccc(F)cc4)ccc2N[C@@H]3CO)c1	-12
CN(C)CC#Cc1ccc([C@@H]2[C@@H](CO)N3CCCCN(C(=O)Nc4ccccc4F)C[C@@H]23)cc1	11
COc1cccc(-c2ccc([C@@H]3[C@@H](CO)N4CCCCN(CC5CC5)C[C@@H]34)cc2)c1	23
CCCNC(=O)N1[C@H](CO)[C@@H](c2ccc(C3=CCCC3)cc2)[C@@H]1CNC(=O)CC	-1
CCC(=O)N(CC)C[C@H]1[C@H](c2ccccc2)[C@@H](CO)N1C(=O)C1CCC1	-7
CCCC#Cc1ccc([C@H]2[C@H]3CN(C(=O)c4ccc5c(c4)OCO5)CCCCN3[C@H]2CO)cc1	18
COc1ccc(CNC(=O)C[C@@H]2C[C@H]3c4cc(NC(=O)NC5CCCC5)ccc4O[C@H]3[C@@H](CO)O2)cc1	-1
COc1ccccc1C(=O)N1C[C@@H]2[C@H](c3ccccc31)[C@@H](CO)N2CC1CCOCC1	-8
(more compounds)
SMILES	Yeast UUG start
C[C@@H]1CN([C@H](C)CO)C(=O)c2cc(NC(=O)CCC(F)(F)F)ccc2O[C@H]1CN(C)S(=O)(=O)c1ccc(Cl)cc1	2
CO[C@H]1CN(C)C(=O)c2cc(NC(C)=O)ccc2OC[C@@H](C)N(C(=O)Cc2cccnc2)C[C@H]1C	-10
Cc1ccc(S(=O)(=O)N(C)C[C@@H]2Oc3ccc(NC(=O)Nc4ccc(F)cc4)cc3C(=O)N([C@@H](C)CO)C[C@@H]2C)cc1	-6
Cc1ccc(S(=O)(=O)N(C)C[C@@H]2Oc3ccc(N(C)C)cc3CC(=O)N([C@H](C)CO)C[C@@H]2C)cc1	1
CCCC#Cc1ccc([C@H]2[C@@H](CO)N3CCCCN(Cc4ccncc4)C[C@@H]23)cc1	-3
O=C(Nc1ccccc1)N1CCCCN2[C@H](CO)[C@H](c3ccc(-c4ccccc4F)cc3)[C@H]2C1	5
CN(C)CC#Cc1ccc([C@H]2[C@@H](CO)N3CCCCN(C(=O)Nc4ccccc4F)C[C@H]23)cc1	33
CC1C=NC(S(=O)(=O)N2CC[C@@H]3[C@@H](CO)N(C)c4ccc(-c5ccc(F)cc5)cc4[C@@H]32)=N1 (stereo partly drawn)	1
CCCNC(=O)Nc1ccc2c(c1)OC[C@H](C)N(Cc1cncnc1)C[C@@H](C)[C@@H](OC)CN(C)C2=O	-3
C[C@H](CO)N1C[C@H](C)[C@H](CN(C)Cc2ccc(C(=O)Nc3ccccc3N)cc2)Oc2ccc(NC(=O)CCN3CCOCC3)cc2C1=O	-7
COc1cccc(NC(=O)N(C)C[C@@H]2OCc3cnnn3CCCC(=O)N([C@H](C)CO)C[C@H]2C)c1	-1
C[C@@H]1CN([C@H](C)CO)C(=O)c2cccc(NC(=O)c3cnccn3)c2O[C@H]1CN(C)Cc1ccc(-c2ccccc2)cc1	-4
C/C=C/c1ccc2c(c1)[C@@H]1[C@@H](CCN1C(=O)Cc1cccnc1)[C@H](CO)N2C	0
CCC(=O)N(CC)C[C@@H]1[C@@H](c2ccccc2)[C@H](CO)N1C(=O)C1CCC1	-10
